From PubChem
KCNQ2 inh: KCNQ2 potassium channel inhibitors, primary screen, cell-based, CHO-K1, FluxOR thallium flux, B-score (AID 2156). 20 min; active compounds read low; only compounds with negative scores are shown here; some inactives read as strong as hits. O88943. 310,000 tested, 1.1% active. B-score at 10 µM;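 active = fluorescence ratio B-score at most minus 3 library SDs, with starting brightness B-score within 2 library SDs, cut at about -5.5 in these data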
Target sequence (O88943 whole entry, looked up): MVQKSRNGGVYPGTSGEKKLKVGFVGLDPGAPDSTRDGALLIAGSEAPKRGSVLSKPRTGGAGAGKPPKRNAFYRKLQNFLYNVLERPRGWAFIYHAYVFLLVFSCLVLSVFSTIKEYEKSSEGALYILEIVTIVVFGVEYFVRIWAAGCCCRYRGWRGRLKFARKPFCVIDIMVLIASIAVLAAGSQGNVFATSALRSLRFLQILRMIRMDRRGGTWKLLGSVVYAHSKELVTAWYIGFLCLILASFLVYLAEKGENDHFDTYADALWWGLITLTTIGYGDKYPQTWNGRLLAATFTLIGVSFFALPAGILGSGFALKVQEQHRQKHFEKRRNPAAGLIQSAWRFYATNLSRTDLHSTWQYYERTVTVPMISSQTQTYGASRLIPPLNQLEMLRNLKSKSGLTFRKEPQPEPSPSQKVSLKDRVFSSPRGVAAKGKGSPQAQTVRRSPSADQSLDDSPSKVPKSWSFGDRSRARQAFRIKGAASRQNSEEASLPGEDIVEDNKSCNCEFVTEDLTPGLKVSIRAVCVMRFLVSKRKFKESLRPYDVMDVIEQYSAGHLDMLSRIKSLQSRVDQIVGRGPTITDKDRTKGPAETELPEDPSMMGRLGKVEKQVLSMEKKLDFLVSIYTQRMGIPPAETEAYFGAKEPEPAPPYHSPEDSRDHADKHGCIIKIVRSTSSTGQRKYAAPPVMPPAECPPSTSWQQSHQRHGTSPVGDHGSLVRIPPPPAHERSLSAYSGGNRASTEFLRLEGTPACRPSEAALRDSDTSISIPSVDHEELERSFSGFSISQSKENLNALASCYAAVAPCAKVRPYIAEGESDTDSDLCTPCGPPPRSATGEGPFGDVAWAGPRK
KCNQ2 inh baseline: further read-out of KCNQ2 inh, marked with its call; B-score; measured here: initial fluorescence intensity artifact check;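 brightness before thallium and not channel activity; 0 = typical well and far values either way flag optical interference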
* marks the source's active call; other numbers are inactive results; i = inactive.

KCNQ2 inh	KCNQ2 inh baseline	canonical_smiles
i	0.36	CC(NC(=O)CSc1nc2ccccc2c(=O)[nH]1)c1ccccc1 (configuration not stated)
i	-0.08	COCc1[nH]nc2c1C1(CCC3(CC1)OCCO3)C(C#N)=C(N)O2
i	-0.05	CCn1c(SCC(=O)O)nnc1-c1cc2c(C)nn(-c3ccccc3)c2s1
i	-1.8	COc1ccc(-c2nc(CS(=O)(=O)CC(=O)NCCc3ccc(C)cc3)c(C)o2)cc1
i	2.8	Cc1nn(Cc2ccccc2Cl)c2sc(C(=O)NCCCn3ccnc3)cc12
i	0.52	CC12CCC(=O)C=C1CCC1C2C(=O)CC2(C)C1CC[C@]2(O)C(=O)CO (some centres not stated)
i	-1.3	Cc1ccc(C2(C(F)(F)F)NC(=O)N3C(=C2C#N)Nc2ccccc23)cc1 (configuration not stated)
i	-1.3	O=C(NCc1cccnc1)C(=O)NCC(c1ccco1)N1CCOCC1 (configuration not stated)
i	0.25	CC1CCN(C2=NC(=O)/C(=C/c3ccccc3F)S2)CC1
i	0.43	Cc1ccnc(NC(=O)c2ccc(NS(=O)(=O)/C=C/c3ccccc3)cc2)c1
i	0.98	O=C(O)c1ccc(C(=O)C(=O)c2ccccc2)cc1
i	-0.27	Cc1cc(Br)ccc1SCC(=O)OCC(=O)N1CCN(C(=O)c2ccco2)CC1
i	3.3	COc1ccc(CC(=O)NCc2n[nH]c(=S)n2C)cc1
i	1.1	O=C(Nn1cnnc1)c1ccc(Br)s1
i	0.22	CCOc1cc(/C=C2\N=C(C)OC2=O)cc(Cl)c1OCC(=O)OC
i	-0.26	CC(=O)Nc1cccc(-n2nnc(SCC(=O)Nc3ccc(F)c(Cl)c3)n2)c1
i	0.93	Cc1cccc(Nc2nc(N3CCN(C)CC3)nc(N)c2[N+](=O)[O-])c1
i	-0.8	CC1(C(=O)N(Cc2ccccc2)Cc2ccccc2)CC1(Br)Br (configuration not stated)
i	0.47	COc1cccc(C(=O)Nc2ccc(C(=O)NCC(C)C)cc2)c1
i	0.15	O=C(c1ccccc1)c1ccc(OCC(O)CNCc2cccc(Cl)c2)cc1 (configuration not stated)
i	0.01	Cc1cc(C)c(NC(=O)C(C)Sc2nc3ccc(N4C(=O)c5ccccc5C4=O)cc3s2)c(C)c1 (configuration not stated)
i	0.35	COc1ccccc1NS(=O)(=O)c1ccc2oc(SCc3ccc(F)cc3)nc2c1
i	-0.6	COc1cccc(NC(=O)CN2CCN(c3ccccc3F)CC2)c1
i	0.7	CCCSc1nc(SCC(=O)NCc2ccccc2)c2c3c(sc2n1)COC(C)(CC)C3 (configuration not stated)
i	-0.11	S=C(NCc1cccnc1)Nc1ccc(Cl)cc1Cl
i	-0.02	CCN1C(=O)c2ccccc2S(=O)c2ccc(C(=O)NCCN(CC(C)C)CC(C)C)cc21 (configuration not stated)
i	3	CN1CCN(Cc2c(O)ccc3cc(-c4ccccn4)c(=O)oc23)CC1
i	-0.68	CCn1ccnc1CN(C)C(=O)CCc1nnc(CCCc2ccccc2)o1
i	1.1	O=C(NC(Cc1ccccc1)C(=O)Oc1ccc2c(C(F)(F)F)cc(=O)oc2c1)OCc1ccccc1 (configuration not stated)
i	-1.6	COc1cc(C(=O)NCCC(=O)NCCN2CCCCCC2)cc(OC)c1OC
i	-0.64	O=C(COc1ccccc1Cc1ccccc1)NCCCN1CCOCC1
i	1	COc1ccc(S(=O)(=O)N2CCN(C(=O)c3cccs3)CC2)cc1
i	1.4	N#C/C(=N\Nc1ccccc1)C(=N)N1CCOCC1
i	4.4	CCN1C(=O)c2cccc3c(S(=O)(=O)Nc4ccncc4)ccc1c23
i	0.38	COc1ccccc1NC(=O)c1oc2ccccc2c1NC(=O)c1ccco1
i	-0.71	O=C(/C=C/c1ccc(Cl)c([N+](=O)[O-])c1)c1cccnc1
i	2.1	COc1ccccc1C/C(N)=N/O
-9.4*	1.4*	O=C(CSc1nnc(COc2ccc(Cl)cc2)o1)N1c2ccccc2CCc2ccccc21
i	0.36	Fc1cccc(NC(=S)Nc2cccnc2)c1
i	-0.8	C=CCSC1=N/C(=C\c2ccsc2)C(=O)S1
i	0.12	Cc1csc(C(=O)O)c1NC(=O)c1cccc([N+](=O)[O-])c1
i	0.9	COc1ccc(CN2CC(C(=O)NCCCN3CCCCC3)CC2=O)cc1 (configuration not stated)
i	-0.18	CCN(CC)CCNC(=O)c1c(O)c2c([nH]c1=O)CCCC2
i	-1.2	N#CC1=C(N)Oc2n[nH]c(-c3ccc(F)cc3)c2C1c1cccnc1 (configuration not stated)
-5.9*	0.7*	COC(=O)C1=C(C)N(CCc2ccccc2)C(=O)/C1=C\c1ccco1
i	-1.7	CC1(C)CC(=O)CC2(C1)NCC(c1ccccc1Cl)c1c2[nH]c2ccccc12 (configuration not stated)
i	1.7	CN(C)S(=O)(=O)N1CCC(C(=O)O)(c2ccccc2)CC1
i	-0.07	COc1cccc(-c2csc(NC(C)=O)n2)c1
i	1.4	Nc1c(C(=O)c2ccc(Cl)cc2)oc2ccccc12
i	1.6	O=S(=O)(c1cccc(-c2nnc(SCc3ccc(Cl)cc3)o2)c1)N1CCCCC1

Additional records follow:
KCNQ2 inh	KCNQ2 inh baseline	canonical_smiles
i	-0.17	Cc1cc2cc(CNS(=O)(=O)c3ccc4ccccc4c3)ccc2n1C
i	0.58	CCOC(=O)N1CCN(CCC(=O)Nc2cc([N+](=O)[O-])ccc2OC)CC1
i	1.9	COc1ccc(-c2nnc(NC(=O)c3cc(Cl)ccc3Cl)o2)cc1
i	0.78	CCOC(=O)COc1ccc(S(=O)(=O)Nc2cccc(SC)c2)cc1
i	-1.1	CC(C)CCN1CCN(Cc2cnc(-c3ccccc3)s2)CC1CCO (configuration not stated)
i	-0.05	COc1ccccc1NS(=O)(=O)c1ccc(O)c(C(=O)OCC(=O)Nc2ccccc2F)c1
i	-1.1	COc1cccc(/C=N/NC(=O)c2cccc3ccccc23)c1OC
i	-0.13	Cc1ccc(S(=O)(=O)c2cc(OC(=O)c3ccco3)ccc2OC(=O)c2ccco2)cc1
i	0.58	Cc1nc(-c2ccc(Cl)cc2)sc1C1(C)CC(c2cccnc2)=NO1 (configuration not stated)
i	1.9	O=C1CC(c2nc3ccccc3[nH]2)CN1c1ccccc1F (configuration not stated)
i	-2.2	CC1CCCC(C)N1C(=O)CSc1nnc(COc2ccccc2)n1-c1ccccc1 (configuration not stated)
i	0.42	CCOc1ccc(Nc2nc(N)c([N+](=O)[O-])c(N3CCN(CC)CC3)n2)cc1
i	-0.34	CN1C(=O)/C(=C/c2ccccc2Cl)Sc2ccc(C(=O)N3CCCC3)cc21
i	-0.35	O=C(COc1ccccc1)N1CCCC1
i	-1.9	CN(C)c1cccc2c(S(=O)(=O)N3CCCC3)cccc12
i	-2.4	CCOC(=O)c1c(C(F)(F)F)cc(-c2ccc(F)cc2)nc1C
i	0.36	COc1cccc2cc(-c3cc(=O)oc4cc(C)c(O)cc34)oc12
i	-0.58	O=C(NC1CCCC1)C(c1ccncc1)N(C(=O)c1ccco1)c1ccc(Cl)cc1 (configuration not stated)
i	-0.52	CC12C(=O)N(n3cnnc3)C(=O)C1C1C=CC2C1 (configuration not stated)
i	0.12	COc1ccc(NC(=O)C(C)N2C(=O)c3ccccc3S2(=O)=O)c(OC)c1 (configuration not stated)
i	-1.7	COc1ccc(/C=N/NC(=O)CNS(=O)(=O)c2ccc(C)cc2)cc1
i	-1.9	COc1ccc(NS(=O)(=O)c2cccc(C(=O)NCC3(N(C)C)CCCCC3)c2)cc1
i	-1.2	CCNC(=O)c1ccccc1-c1nc(-c2ccccc2)no1
i	2.2	COc1ccc(C/C(C)=N\NC(=O)c2cn(C)c3ccccc23)cc1OC
i	1.2	COC(C(=O)N1CCC(CCC(=O)Nc2ccccc2)CC1)c1ccccc1 (configuration not stated)

15 of these compounds in a different format:
Below each compound – KCNQ2 inh, KCNQ2 inh baseline
- CC1CCCC(C)N1C(=O)CSc1nnc(COc2ccccc2)n1-c1ccccc1 (configuration not stated)
 : i, -2.2
- CCOc1ccc(Nc2nc(N)c([N+](=O)[O-])c(N3CCN(CC)CC3)n2)cc1
 : i, 0.42
- CN1C(=O)/C(=C/c2ccccc2Cl)Sc2ccc(C(=O)N3CCCC3)cc21
 : i, -0.34
- O=C(COc1ccccc1)N1CCCC1
 : i, -0.35
- CN(C)c1cccc2c(S(=O)(=O)N3CCCC3)cccc12
 : i, -1.9
- CCOC(=O)c1c(C(F)(F)F)cc(-c2ccc(F)cc2)nc1C
 : i, -2.4
- COc1cccc2cc(-c3cc(=O)oc4cc(C)c(O)cc34)oc12
 : i, 0.36
- O=C(NC1CCCC1)C(c1ccncc1)N(C(=O)c1ccco1)c1ccc(Cl)cc1 (configuration not stated)
 : i, -0.58
- CC12C(=O)N(n3cnnc3)C(=O)C1C1C=CC2C1 (configuration not stated)
 : i, -0.52
- COc1ccc(NC(=O)C(C)N2C(=O)c3ccccc3S2(=O)=O)c(OC)c1 (configuration not stated)
 : i, 0.12
- COc1ccc(/C=N/NC(=O)CNS(=O)(=O)c2ccc(C)cc2)cc1
 : i, -1.7
- COc1ccc(NS(=O)(=O)c2cccc(C(=O)NCC3(N(C)C)CCCCC3)c2)cc1
 : i, -1.9
- CCNC(=O)c1ccccc1-c1nc(-c2ccccc2)no1
 : i, -1.2
- COc1ccc(C/C(C)=N\NC(=O)c2cn(C)c3ccccc23)cc1OC
 : i, 2.2
- COC(C(=O)N1CCC(CCC(=O)Nc2ccccc2)CC1)c1ccccc1 (configuration not stated)
 : i, 1.2

Next part
KCNQ2 inh	KCNQ2 inh baseline	canonical_smiles
i	-0.37	COc1ccc(S(=O)(=O)CCC(=O)N(C)c2ccc(OC)cc2OC)cc1
i	-1	S=C(NN=C1C2CC3CC(C2)CC1C3)Nc1ccccc1
i	1.1	CCS(=O)(=O)Nc1ccccc1C(N)=O
i	-1.4	C=C(C)C1Cc2c(C)nn(-c3nc(C)cc(C)n3)c2C1 (configuration not stated)
i	-0.89	COc1ccc(CCn2c(NN)nc3c2c(=O)[nH]c(=O)n3C)cc1
i	1.4	Cc1[nH]c2ccccc2c1C(=O)CSC(=S)N1CCCCC1
i	-0.02	CCC(=O)NC(Nc1ccccn1)(C(=O)OC)C(F)(F)F (configuration not stated)
i	-0.89	COc1cc(/C=C/CO)cc(OC)c1O[C@@H]1O[C@H](CO)[C@@H](O)[C@H](O)[C@H]1O
i	0.93	c1ccc(-c2oc3ncnc(NCCCN4CCOCC4)c3c2-c2ccccc2)cc1
i	3.4	O=C1N/C(=N\S(=O)(=O)c2ccccc2)S/C1=C\c1cc([N+](=O)[O-])ccc1O
i	-0.62	CC(C)(C)C(=O)Nc1sc2c(c1C#N)CCC2
i	-1.5	Cc1ccc(NC(=O)c2cc(-c3ccc(F)cc3)on2)cc1C
i	1.1	O=C(c1cccc(C(=O)N2CCN(Cc3ccccc3)CC2)c1)N1CCN(Cc2ccccc2)CC1
i	0.51	Cn1cccc1CC(=O)NNC(=S)Nc1ccccc1Cl
i	1.1	CCOC(=O)c1c(N)nn(C(=O)c2ccccc2F)c1-c1ccc(OC)cc1
i	0.19	Cc1ccc(C(=O)Nc2ccccc2C(=O)NC2CCCCC2)cc1S(=O)(=O)N1CCOCC1
i	-0.03	O=C(Nc1c2c(nn1-c1ccc(F)cc1)CS(=O)C2)C12CC3CC(CC(C3)C1)C2 (configuration not stated)
i	-0.48	CCOn1c(SC(C)C)nc2ccccc2c1=O
-8.2*	0.57*	CCN(CC(=O)NCc1ccc(Cl)cc1)C(=O)CSc1cc(C)ccc1C
i	-0.51	CC(=O)Nc1nc(C)c(-c2csc(Nc3cccc([N+](=O)[O-])c3)n2)s1
i	2.4	Cc1ccncc1C(N)=O
i	1.1	CC(C)n1cc(/C=C2/SC(=O)N(CC(=O)Nc3ccc4c(c3)OCO4)C2=O)c2ccccc21
i	1.1	O=C(CCc1nc(-c2ccccc2F)no1)NC1CCCCC1
-6.1*	-0.37*	COc1cc(C(=O)NNC(=S)Nc2ccc(S(N)(=O)=O)cc2)cc(OC)c1OC
i	3.6	Cc1ccc2c(=O)cc(C(=O)NCc3ccccc3)oc2c1C
i	-2.2	S=C(Nc1cc(Cl)cc(Cl)c1)N1CCCC1
i	-0.85	O=C(NCc1nnnn1-c1ccc(F)c(F)c1)c1ccc(S(=O)(=O)N2CCOCC2)cc1
i	-0.5	Cc1cc(C)c2nc(SCC(=O)Nc3cc(C)on3)c(C#N)cc2c1
i	-1.5	CC(Oc1ccc(Cl)cc1Cl)c1nc(-c2ccccn2)no1 (configuration not stated)
i	1.1	O=C(CNC(=O)c1sc2ccccc2c1Cl)OCc1ccccc1
i	2.5	COCCCNC(=O)C1CC(=O)OC1c1ccc(OC)c(OC)c1 (configuration not stated)
i	0.83	Cc1ccccc1OCC(O)CN1CCN(c2ccc(Cl)cc2)CC1 (configuration not stated)
i	-0.29	Cn1nc(-c2ccc(C(=O)Nc3cccnc3)cc2)c2ccccc2c1=O
i	0.34	CN(C)c1ccc(-c2cccc(C3CC=CC4C3C(=O)N(Cc3ccccc3)C4c3ccc4ccccc4c3)c2)cc1 (configuration not stated)
i	-0.24	Cn1c(=O)c2c(nc(Br)n2C)n(C)c1=O
i	0.73	CCOC(=O)c1c(NC(=O)c2ccc(S(=O)(=O)N(C)CC3CCCO3)cc2)sc2c1CC(C)(C)NC2(C)C (configuration not stated)
i	0.58	S=c1[nH]nc(-c2cc(-c3ccccc3)n[nH]2)n1/N=C/c1cccs1
i	-0.2	CC(C)(C)n1nc(Cc2cccc3ccccc23)c2c(N)ncnc21
i	0.29	O=C(Nc1ccc(Cl)c(Cl)c1)Nc1ccc(N2CCCC2)c(S(=O)(=O)Nc2ccccc2Cl)c1
i	-0.94	COc1ccc(-c2nc(N)n(C(=O)c3ccccc3)n2)cc1
i	-0.14	C/C(CCN1CCc2nc(-c3ccccc3)c(-c3ccccc3)cc2C1)=N\OC[C@@H](C)[C@H](OCc1ccccc1)C(C)C

Only part of the results is shown; rates above refer to the full screens.
